Assay outcomes deposited in PubChem by several laboratories.
Beta apoptosis = beta cell apoptosis inhibition | INS-1E cytokine-induced death, ATP luminescence, 48 h; percent of positive-control rescue, neutral wells zero | protection from apoptosis, % (test concentration not listed) | 300,000 tested, 0.8% active | AID 435005;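 active = all replicates at 75% or more, or half of them and the mean; inconclusive = half reach 75% but not the mean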;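 note: 0% = cytokine-treated negative control wells and 100% = positive control rescue; higher means more ATP so stronger rescue from cytokine killing; wells of about 40 µL received 100 nL stock; the first replicate is given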
rRNA inh HTS = selective bacterial rRNA inhibition in E. coli | E. coli WT GFP vs humanized-ribosome RFP mutants, fluorescence, 24 h; stronger effect = lower value; DMSO median 0, no signal -100 | GFP signal change (wild-type ribosome), % (no concentration beside the values) | 350,000 tested, 1.6% active | AID 720706;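 active = significant combined selectivity score with lowered wild-type GFP, culture density cut under 30%, mutant RFP and density less affected; inactive = any of these conditions unmet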; note: one replicate is shown; some compounds called inactive have numbers as strong as hits
Bfl-1 A1 inh = inhibitors of the anti-apoptotic protein A1, read as caspase activation. MEF A1-2A-BIM cells, Caspase-Glo 3/7 luminescence, 3 h; percent of clofoctol response, vehicle zero. caspase activation, % (test concentration not listed). 330,000 tested, 0.066% active. AID 2462;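 active = over half of replicate activation scores above 10%, or exactly half above 10 with the replicate mean above 10; inconclusive = replicate mean below 10 yet half the replicates above 10; inactive = over half of replicates below 10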;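 note: wells of about 30 µL received 50 nL stock; many hits fall short of the cut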
LANA-H2B inh = blocks KSHV LANA binding to histone H2A/H2B; cell-free LANA-H2A/H2B peptide, fluorescence polarization; inhibition, % (test concentration not listed); 320,000 tested, 0.6% active; AID 2629; in the data active = inhibition mostly above about 10%, no sharp cut-off; inactive = mostly below about 6.7%;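 note: stock transfer was 7.5 nL into about 10 µL; 0% = median of vehicle wells and 100% = median of positive control wells; one replicate is shown; the record names a cut of 25% in any replicate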
T cruzi inh = T. cruzi replication inhibition; T. cruzi beta-gal in NIH3T3, luminescence, 90 h; inhibition, % (concentration not given with the values); 300,000 tested, 1.4% active; AID 1885;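 active = mean inhibition across valid replicates above about 55%, limit read from the data; inconclusive = mean below that limit but half or more replicates reach it; inactive = mean below it, under half of replicates reach it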;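 note: signal also drops with host cell toxicity which is not excluded here; 0% = plate median of DMSO wells and 100% = zero luminescence signal; higher percent means less beta-gal luminescence so fewer parasites; stock transfer was 50 nL into about 50 µL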
B2AR ag = activates human beta-2 adrenergic receptor causing internalization. 340,000 tested, 0.43% active. response, % (no concentration beside the values). Am2.2-beta2AR cells, FAP receptor internalization, flow cytometry; reference of the scale not given here;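 active = response above a set limit, near 3 SD of response in nonfluorescent compounds, cut at about 42% in these data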;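 note: stock transfer was 100 nL into about 11 µL; a reference agonist was the positive control; negative values mostly stem from fluorescent compounds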
Target sequence (P07550 whole entry, looked up): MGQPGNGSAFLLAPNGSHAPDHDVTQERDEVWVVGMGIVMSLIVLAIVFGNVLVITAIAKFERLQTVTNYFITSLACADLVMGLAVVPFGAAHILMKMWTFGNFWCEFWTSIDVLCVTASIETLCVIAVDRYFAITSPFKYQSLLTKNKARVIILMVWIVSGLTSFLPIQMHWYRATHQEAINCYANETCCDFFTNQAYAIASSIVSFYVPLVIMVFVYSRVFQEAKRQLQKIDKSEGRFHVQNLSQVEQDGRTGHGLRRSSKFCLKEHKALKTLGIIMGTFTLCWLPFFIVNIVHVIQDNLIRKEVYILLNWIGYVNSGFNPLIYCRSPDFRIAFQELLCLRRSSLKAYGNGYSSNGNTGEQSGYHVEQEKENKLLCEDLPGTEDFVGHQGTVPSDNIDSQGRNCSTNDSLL
Calb FLC = C. albicans growth modulation with fluconazole. C. albicans CaCi-2 (fluconazole-resistant clinical isolate) + fluconazole, Alamar Blue growth, 48 h. growth inhibition, % (no concentration beside the values). 300,000 tested, 0.57% active. AID 1979;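 active = most replicates above 75%; inconclusive = exactly half above 75%; inactive = most below 75%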;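 note: all wells also contain fluconazole at 8 µg/ml as a sub-toxic cotreatment; 0% = median of DMSO wells and 100% = median of geldanamycin control wells; wells of about 8 µL received 7.5 nL stock; the first replicate is given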
ALR inh = blocks human ALR sulfhydryl oxidase activity | AID 485317 | inhibition, % (test concentration not listed) | purified ALR, DTT oxidation, H2O2 HRP-luminol luminescence | 290,000 tested, 3.8% active;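 active = mean and each replicate at 75% or more; inconclusive = only one of the two met; inactive = neither met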;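 note: stock transfer was 7.5 nL into about 7.5 µL; 0% = neutral wells and 100% = wells with inactivated enzyme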
Target sequence (P55789 whole entry, looked up): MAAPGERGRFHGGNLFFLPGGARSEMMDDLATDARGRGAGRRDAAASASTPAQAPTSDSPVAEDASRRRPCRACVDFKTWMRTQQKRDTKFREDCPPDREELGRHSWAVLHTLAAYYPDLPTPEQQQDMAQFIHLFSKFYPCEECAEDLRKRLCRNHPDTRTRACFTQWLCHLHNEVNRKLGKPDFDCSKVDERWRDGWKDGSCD
rRNA inh HTS OD600 = also measured in rRNA inh HTS; calls as there; OD600 change, %; measured here: OD600 growth;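 optical density of the mix in the first replicate; 0 = DMSO median and -100 = no signal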
rRNA inh HTS RFP = further read-out of rRNA inh HTS, marked with its call; RFP signal change, %; measured here: RFP humanized mutant strains;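 first replicate; 0 = DMSO median and -100 = no signal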
An asterisk follows results filed as active; ? = inconclusive; . = no result given.

SMILES	Beta apoptosis	rRNA inh HTS	rRNA inh HTS OD600	rRNA inh HTS RFP	Bfl-1 A1 inh	LANA-H2B inh	T cruzi inh	B2AR ag	Calb FLC	ALR inh
CCCCN(CCCC)S(=O)(=O)c1ccc(C(=O)Nc2nnc(CSC)o2)cc1	23	.	.	.	-0.6	-11	52	1	1	1
Cc1ccc(NC(=O)COC(=O)/C=C/c2ccco2)cc1S(=O)(=O)N(C)C	-3	.	.	.	-0.7	0.6	-7	-10	5	.
Cc1ccc(-n2ncc3c(=O)[nH]c(SC(C)C)nc32)cc1	4	9	6	-1.7	-0.7	1.1	.	3	.	.
COc1ccc(CC(=O)NNC(=O)c2c(-c3ccccc3Cl)noc2C)cc1OC	-15	9	5	-0.9	-0.3	-2.5	2	-3	0	.
Cc1cc(C)n(C(=O)CNC(=O)c2cccc(F)c2)n1	.	3	8	-1.4	.	.	-13	0	-2	.
Cc1cccc2nc(C(F)(F)F)nc(=O)n12	-23	.	.	.	-0.2	-8.6	-6	15	9	.
COC(=O)C1(Cc2ccccc2)NC(c2ccc(F)cc2)C2C(=O)N(C)C(=O)C21 (stereo not drawn)	1	.	.	.	-0.3	2.5	7	1	-3	-1
O=C(OCC(=O)N1CCOCC1)c1ccccc1OCc1ccccc1Cl	4	-19	-31	-2.7	0.6	-6.8	.	1	.	-3
CC(C)(C)c1ccc(C(=O)N2CCN(c3nc4ccccc4o3)CC2)cc1	35	5	3	1.9	.	6.3	6	-5	-5	-14
C=CCn1c(=O)c2ccccc2n2c(SCC(=O)Nc3sc(C(=O)N(CC)CC)c(C)c3C(=O)OCC)nnc12	6	-3	3	-3.9	-0.4	-2.9	13	-4	19	-14
COc1ccccc1N1CCN(S(=O)(=O)c2ccc3c(c2)NC(=O)C(C)C(=O)N3)CC1 (stereo not drawn)	-4	2	5	0.5	0.5	4.2	-5	-2	1	11
O=C(CCSCc1ccccc1Cl)NCc1cccs1	6	-32	-31	-3.4	0.3	-5.3	-20	14	-18	.
COc1cc(NC(=O)Cn2nc(C(F)(F)F)c3c2CCCC3)cc(OC)c1OC	6	.	.	.	0.7	-1.4	-4	3	-4	.
COc1ccc(NC(=O)Cn2c(=O)n(Cc3ccco3)c(=O)c3ccccc32)cc1	6	.	.	.	0.5	1.9	3	-4	-2	-17
O=C(NNC(=O)c1cccnc1SCc1cccc([N+](=O)[O-])c1)c1ccc(F)cc1	?	5	9	-4.3	-0.8	-3.3	-8	-1	13	-3
C#CCOCCOCCOCCNc1nc(N2CCN(C(=O)[C@H]([C@@H](C)CC)n3cc([C@@H](N)CC(C)C)nn3)CC2)nc(N2CCN(C(=O)[C@H](CCCCN)n3cc([C@@H](N)CO)nn3)CC2)n1	0	.	.	.	0.5	-0.8	-7	0	7	-19
Cc1ccccc1N=Cc1cc2c(cc1[N+](=O)[O-])OCO2	-14	5	4	1.2	0.5	6.6	0	10	17	66
COc1ccc(NC(=O)CSc2nc3c(c(=O)n2-c2ccc(F)cc2)SCC3)cc1	-4	-2	2	-2.3	0.3	3.0	6	2	1	.
Cc1cc(/C=N/NC(=O)C(=O)NCc2ccccn2)c(C)n1-c1cccc(Br)c1	-2	-17	-9	-4.3	-0.1	-2.1	-30	6	40	5
Cc1cnc(-c2nnc(N(C)C(=O)c3cccnc3)s2)cn1	-1	.	.	.	-1.9	0.3	-16	-14	-5	-1
Cc1c(Cl)c([N+](=O)[O-])nn1CCCC(=O)Nc1cccc(Cl)c1	-8	.	.	.	-0.2	2.1	0	5	16	-6
O=C(NC1CCCC1)C1CCC(=O)N1CCc1ccccc1 (stereo not drawn)	-8	.	.	.	-0.1	6.4	-3	-7	-5	-8
Cn1cc([N+](=O)[O-])c(C(=O)Nc2ccc(C3CCCCC3)cc2)n1	-15	-3	1	-0.3	-9.1	-5.3	26	3	37	-4
COC(=O)c1ccc(COc2ccc(C(=O)c3ccccc3)cc2)o1	-7	1	-24	1.5	0.4	-4.0	1	0	-2	-1
N#C/C(=C(/O)COC(=O)COc1cccc(Br)c1)c1nc2ccccc2[nH]1	7	9	1	2.5	0.0	0.1	-1	41	10	-7

Next part:
SMILES	Beta apoptosis	rRNA inh HTS	rRNA inh HTS OD600	rRNA inh HTS RFP	Bfl-1 A1 inh	LANA-H2B inh	T cruzi inh	B2AR ag	Calb FLC	ALR inh
CCCN1C2CCCC1CC(NC(=S)Nc1cccc(C)c1C)C2 (stereo not drawn)	-4	9	-12	-7.3	0.4	0.1	-11	4	1	8
CNC(=O)c1ccc(NC(=O)Cc2ccc(S(=O)(=O)N3CCOCC3)s2)cc1	-17	8	10	2.3	0.1	20	-9	3	4	-13
COc1cccc(C(=O)Nc2nnc(-c3ccc(F)cc3)o2)c1	0	-57	-75	-17	0.2	0.9	-2	-16	83*	-4
CCN1CCN(c2cc(C)c3cc(NC(=O)c4ccc(C)c(C)c4)ccc3n2)CC1	3	3	6	0.9	0.3	-3.1	44	26	3	2
O=C(COc1ccc(Cl)cc1)OCC(=O)N1CCCC1	-4	.	.	.	0.0	-6.4	-6	-5	-5	0
CCOc1ccc(NC(=S)NN2CCN(C)CC2)cc1	.	.	.	.	1.1	-1.2	-8	-5	?	26
CN1CCN(S(=O)(=O)c2ccc(N3CCN(C(=O)c4ccccc4)CC3)nc2)CC1	0	20	16	3.1	0.8	2.1	-1	-2	-11	-2
CCCN1CCN(CCCNC(=O)c2cc3c(=O)oc4ccc(C)cc4c3s2)CC1	0	-1	-10	1.3	-0.6	4.2	12	-14	1	-6
CCCn1nc(Oc2nc(NCC)nc(NC(C)C)n2)ccc1=O	5	.	.	.	0.7	3.3	-3	-5	-11	0
Cc1cc2nnc(SCC(=O)N3C(C)CCCC3C)n2c(N)n1 (stereo not drawn)	-5	.	.	.	0.1	1.1	-3	-5	-3	-4
O=C(NCCc1ccccc1)C(=O)NCC1OCCN1S(=O)(=O)c1ccccc1 (stereo not drawn)	3	5	3	-0.2	1.6	1.7	4	14	0	-7
CN(C)S(=O)(=O)c1ccc(C(=O)N(c2ccccn2)c2ccccn2)cc1	4	.	.	.	-0.7	-4.5	0	-4	9	0
Fc1cccc(NC(=S)NCc2ccc(Cl)cc2)c1	.	-57	-81	-27	1.2	4.1	0	-6	-1	-2
Cc1ccc(C2=NC3(CCCC3)N=C2SCC(=O)Nc2ccc3c(c2)OCCO3)cc1	-4	-6	-8	-2.6	0.2	-7.2	31	-15	-9	99*
CCOc1ccc(=O)n(-c2ccccc2)n1	-1	.	.	.	-0.2	2.1	-11	6	-4	-4
O=C(COC(=O)c1ccc2c(c1)OCO2)Nc1ccccc1F	5	5	6	-0.5	-0.3	2.3	.	7	.	4
CN(CC(=O)Nc1ccc(F)cc1)C(=O)COC(=O)CNC(=O)c1sc2ccccc2c1Cl	-8	0	-4	-2.6	0.6	-1.5	-3	-8	.	-1
C=CCC1(CC=C)CCCN1C(=O)c1cc(COc2cncc(Cl)c2)on1	.	-4	-8	0.8	0.0	2.8	28	-5	-34	-13
Cc1ccc(CS(=O)(=O)CCC(=O)NCCc2ccccc2)cc1	-9	6	14	-1.8	1.1	3.5	4	8	2	-4
CCCCN(Cc1ccco1)C(=O)c1cc2c(=O)[nH]c3ccc(C)cc3c2s1	22	-14	-11	8.0	-0.3	5.0	36	9	2	-31
Cn1c2c(c(O)c(-c3ccccc3)c1=O)C(=O)CC(C)(C)C2	-17	.	.	.	1.2	0.6	4	-8	10	-8
Cc1cc(C)cc(N(CCC#N)C(=O)COC(=O)CCc2c[nH]c3ccccc23)c1	-6	-21	-19	-1.1	-1.2	-4.0	.	-4	.	-1
Cc1noc(C)c1CSCC(=O)Nc1ccc(Br)cc1Cl	-3	-2	-17	-2.6	2.4	.	2	-6	0	.
COc1ccc(-n2nnnc2-c2cn(C)nc2C(F)(F)F)cc1	-7	.	.	.	0.5	-2.8	-15	-11	-5	-3
COc1cccc(N2C(=O)C3CCCN3C2c2ccc(Cl)cc2)c1 (stereo not drawn)	-2	7	4	0.4	0.2	3.5	-9	1	-6	-14

Remaining list, next part
SMILES	Beta apoptosis	rRNA inh HTS	rRNA inh HTS OD600	rRNA inh HTS RFP	Bfl-1 A1 inh	LANA-H2B inh	T cruzi inh	B2AR ag	Calb FLC	ALR inh
CCn1c(C)nnc1SCC(=O)Nc1ccccc1OC	-1	8	9	-0.7	-0.1	-0.1	-10	-2	8	-5
COC(=O)C1N[C@@H]([C@@H](NC(=O)COc2ccccc2)C(=O)NCc2ccccc2)SC1(C)C (stereo partly drawn)	-6	-15	-12	-8.7	0.3	-6.9	-3	-4	7	-1
Cc1ccc(/C=N\Nc2cn[nH]c(=O)c2Cl)cc1	-1	.	.	.	-3.9	-2.7	5	-8	-1	5
CC(=O)NNC(=S)NCCc1ccccc1	0	15	12	2.7	-0.3	0.5	-8	-5	-7	53
CCOC(=O)Nc1ccc(Cc2ccncc2)cc1	-5	5	-4	3.4	1.7	4.6	-1	-6	3	9
O=C1CSc2ccc(C(=O)N3CCN(c4ccccn4)CC3)cc2N1	1	.	.	.	-0.1	1.8	2	-3	8	-2
CCN1CCN(c2ccc([N+](=O)[O-])cc2S(=O)(=O)N2CCOCC2)CC1	-1	0	15	3.2	-1.3	-0.9	5	2	-3	-2
CC(/C=C/c1ccco1)=N/NC(=O)C1COc2ccccc2O1 (stereo not drawn)	-6	11	16	7.1	-0.1	0.1	-7	18	-2	12
CCOc1ccc(-c2c(C(=O)N/N=C/c3ccsc3)nnn2-c2nonc2N)cc1	-11	0	10	3.7	0.2	-4.0	37	-12	1	1
COc1cc(NC(=O)CSc2cc(C)c3cc(C)cc(C)c3n2)c(C(=O)O)cc1OC	-4	6	5	-0.5	0.4	2.6	-20	-1	-4	66
CCc1ccccc1NC(=O)c1cc(-c2ccco2)on1	0	8	8	0.1	-0.7	0.8	1	7	7	.
c1ccc(-n2c(Sc3cnccn3)nnc2-c2cccs2)cc1	-7	.	.	.	0.0	-0.7	-2	8	7	-11
CCOC(=O)CSc1nnc(CSc2nc3ccccc3s2)n1C	-2	4	-8	-3.5	1.2	-3.7	-14	8	?	1
CC1=C(C(=O)N(C)C)C(c2cccc(Cl)c2)NC(=O)N1 (stereo not drawn)	-6	.	.	.	0.6	6.4	-19	-3	-5	13
CCOC(=O)c1c(N)n[nH]c1-c1ccc(OC)cc1	-4	.	.	.	-0.3	-3.3	-5	-7	-11	1
O=C(NC1CCC(O)CC1)c1cc(-c2ccc(Cl)cc2)nc2ccccc12 (stereo not drawn)	10	.	.	.	-1.1	-6.8	.	-4	.	1
CCc1cc(CC)c(/C=N/NC(N)=O)c(CC)c1/C=N/NC(N)=O	4	-14	-13	-3.2	-0.3	-1.5	-3	-1	2	0
COc1ccc(C2C(C(=O)NCCN(C)C)c3cc(OC)c(OC)cc3C(=O)N2C)cc1OC (stereo not drawn)	2	.	.	.	0.3	2.2	7	2	24	-2
COc1ccc(N2C(=NC(=O)c3ccccc3)SC3CS(=O)(=O)CC32)cc1 (stereo not drawn)	-2	7	10	-1.2	0.6	0.0	14	-5	3	4

This is a subset. The share of hits here may be higher or lower than overall.
